Screening data: PubChem, National Center for Advancing Translational Sciences (NCATS)
PINK1 expr mod: changes PINK1 expression; Potency, µM (doses to about 76.6 µM), for inactives: top-dose activation (PINK1 increase), hits mostly activators; 410,000 tested, 0.2% active; PINK1 immunofluorescence, high-content cytometry, 24 h; active = well fitted activation curve with a large enough effect; inconclusive = small, poorly fitted or top-dose-only effect; inactive = flat fitted curve, though single readings scatter; cell line not stated here;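 note: potency is the fitted concentration of half-maximal effect; % of control where 0% means no effect; nearly all actives have a fitted effect of over 65% in size; a mitochondrial uncoupler was the plate control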
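Fluorescence from anti-PINK1 antibody, together with nuclear and cell stains, was scanned on a laser-scanning cytometer. Before staining, stable-line cells were incubated 24 hours with compounds at 5 concentrations; primary antibody 12 h at 10 degrees C.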
TRPML1 ag: activates the human TRPML1 channel; TRPML1-expressing cells, Ca2+ dye fluorescence, FDSS; host cell line not named in the record; reference of the full effect not given here; activation, % (no concentration beside the values); 410,000 tested, 0.12% active; Q9GZU1; in the data active = activation above about 50%; inconclusive = about 30% to 50%; inactive = below about 30%; note: 0% is about no effect; the text of the record puts the active cut at 80%
Target sequence (Q9GZU1 whole entry, looked up): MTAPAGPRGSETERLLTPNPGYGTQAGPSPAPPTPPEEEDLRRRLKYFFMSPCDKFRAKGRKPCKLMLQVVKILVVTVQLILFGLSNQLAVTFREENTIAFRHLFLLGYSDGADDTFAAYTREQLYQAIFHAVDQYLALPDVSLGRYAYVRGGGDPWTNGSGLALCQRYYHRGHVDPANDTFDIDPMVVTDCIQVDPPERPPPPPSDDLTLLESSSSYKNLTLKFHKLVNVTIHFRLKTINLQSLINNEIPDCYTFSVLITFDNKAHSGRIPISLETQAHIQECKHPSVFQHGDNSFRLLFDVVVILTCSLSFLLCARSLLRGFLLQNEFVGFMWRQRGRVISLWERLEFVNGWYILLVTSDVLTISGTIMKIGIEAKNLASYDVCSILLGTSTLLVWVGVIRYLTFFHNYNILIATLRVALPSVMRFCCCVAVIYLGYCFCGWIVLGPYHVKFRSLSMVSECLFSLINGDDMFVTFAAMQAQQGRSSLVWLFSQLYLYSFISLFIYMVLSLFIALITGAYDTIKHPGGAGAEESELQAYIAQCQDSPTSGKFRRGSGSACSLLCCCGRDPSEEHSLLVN
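Cells: TRPML1-DL, 1X Tet inducer, ~16 h at 37 degrees C/5% CO2. Dye: ABD Ca8 no-wash + quencher, 45-90 min RT. Read: 10 s baseline, compound add, 110 s agonist phase; 54-4 EC80 (4uM final), 110 s antagonist phase.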
Starred values were filed as active, the others as inactive; ? = inconclusive.

SMILES	PINK1 expr mod	TRPML1 ag
COC(=O)CCSc1cc(NCCCOC(C)=O)c([N+](=O)[O-])c2nonc12	6.1%	-1.1
Cc1ccc(Nc2c(-c3ccc(C)o3)nc3ccccn23)cc1	2.3%	-1.0
OB(O)c1ccc(B(O)O)cc1	1.9%	-0.5
C[N+]1(CC(=O)c2ccc(O)c(O)c2)CCOCC1	1.1%	-0.2
Cc1ccc(OCC(=O)Nc2ccc(O)c(-c3nc4cc(C)c(C)cc4o3)c2)cc1	-0.8%	0.0
Cc1cc(C(=O)OCC(=O)NC(=O)C2CCCCC2)ccc1[N+](=O)[O-]	-0.9%	0.5
O=C(Nc1nc(-c2ccc3c(c2)OCCO3)cs1)C1CC(=O)N(c2ccc3c(c2)OCCO3)C1 (stereo not given)	1.5%	-0.4
CC1=CC(=C(c2ccc(N)cc2)c2ccc(N)cc2)C=CC1=N	15.8µM*	-1.2
O=C1c2ccccc2C(=O)C1c1cc2ccccc2cn1	-0.8%	-0.7
CC1(C)Nc2cccc3c(N=Nc4ccc(N=Nc5ccccc5)c5ccccc45)ccc(c23)N1	0.8%	-0.9
CCn1c(SC(C)C(=O)NCc2ccco2)nnc1-c1ccccc1 (stereo not given)	0.3%	-0.8
CS(=O)(=O)c1ccc(C(=O)OCC(=O)NC(=O)NC2CCCCC2)cc1[N+](=O)[O-]	-0.5%	-0.6
CN(C)c1ccc(C=O)cc1	1.8%	-0.3
CN(C)c1ccc(/C=C/c2c(Br)cnc3ccccc23)cc1	2.2%	1.3
NS(=O)(=O)c1ccc(N=Nc2nc3[nH]cnc(=S)c3[nH]2)cc1	0.5%	-0.6
COc1cc(S(=O)(=O)O)c(C)cc1N=Nc1c(O)ccc2cc(S(=O)(=O)O)ccc12	0.5%	-0.7
CCOc1cccc(C2C=C(c3ccc4c(c3)OCO4)NC(c3cccc(Br)c3)N2)c1O (stereo not given)	0.1%	0.8
CC1(C)OC(=O)C2(Cc3cc([N+](=O)[O-])ccc3N3CCCCC32)C(=O)O1 (stereo not given)	2.6%	-0.2
CC(=O)N(O)c1ccc(/C=C2\C=Cc3ccccc32)cc1	0.3%	-0.6
Cc1cccc(-n2c(C)nnc2SCC(=O)NC(C)c2ccco2)c1 (stereo not given)	-1.1%	0.6
O=C(Nc1cc(C(=O)Nc2ccc(S(=O)(=O)O)cc2S(=O)(=O)O)cc(C(=O)Nc2ccc(S(=O)(=O)O)cc2S(=O)(=O)O)c1)Nc1cc(C(=O)Nc2ccc(S(=O)(=O)O)cc2S(=O)(=O)O)cc(C(=O)Nc2ccc(S(=O)(=O)O)cc2S(=O)(=O)O)c1	1.6%	-0.5
Cc1cccc(S(=O)(=O)N2CCN(c3nc(-c4cccs4)nc4ccccc34)CC2)c1	0.3%	0.5
COc1cccc(/C=C/c2nccc3ccccc23)c1OC	3.4%	-0.7
Cc1ccc(C)c(C(=O)C[n+]2cccc(Br)c2)c1	-0.2%	-0.3
CCN(C(=O)C(=O)c1c(C)[nH]c2ccccc12)c1ccccc1	-0.3%	-0.5
(list continues)
SMILES	PINK1 expr mod	TRPML1 ag
COc1ccc(CCn2c3c(c(=O)[nH]c2=S)CN(C)CN3)cc1OC	0.2%	0.2
CC(C)(C)C1CCC(NC(=O)c2cnn3c2NC(=C2CC2)C=C3C(F)F)CC1 (stereo not given)	-0.2%	-1.1
CCOc1ccc(NC(=O)c2nc(S(=O)(=O)Cc3ccc(F)cc3)ncc2Cl)cc1	3.5%	0.8
CN(C)c1ccc(/C=C/c2ccnc3ccc(-c4ccccc4)cc23)cc1	27.3%	?
COc1ccc(CN(Cc2ccccc2)C(=O)c2ccncc2)cc1COc1ccc(NC(C)=O)cc1	0.6%	-0.4
NS(=O)(=O)c1ccc(S(=O)(=O)N2CCN(c3nc(-c4ccccc4)nc4ccccc34)CC2)cc1	1.9%	1.5
Cc1nn(C)c(Cl)c1S(=O)(=O)N(Cc1ccco1)c1ncnc2nc[nH]c12	-0.6%	-1.0
CCNC(=O)c1c(NC(=O)c2nc(SCC)ncc2Cl)sc2c1CCCC2	0.9%	-0.3
COc1ccc(/C=C/C(=O)c2c(O)c(OC)c3occc3c2OC)cc1OC	0.0%	-0.5
CCc1cccc(NC(=O)COC(=O)c2ccccc2OCc2ccccc2Br)c1	1.7%	2.6
O=C(c1cc(Br)ccc1O)N(Cc1ccco1)Cc1cccs1	0.8%	-0.6
CC1(C)CCc2cc(O)ccc2O1	2.3%	-0.7
Brc1ccc(C=C2C=c3ccccc3=C2)cc1	0.8%	-0.7
CCCCCCCCCC[n+]1cc(Br)cc(Br)c1	0.4%	-0.3
Cc1ccc(S(=O)(=O)N2CCN(c3nc(-c4cscn4)nc4ccccc34)CC2)cc1	-0.4%	-0.5
CCCCCCOc1ccc(CC(=O)O)cc1	-0.5%	0.1
CS(=O)(=O)c1ccc(/C=C2\C=Cc3ccccc32)cc1	-0.4%	1.1
CO[C@@H]1[C@@H](OC2OC(C)C(OC3CC(C)(O)C(OC(=O)CC(C)C)C(C)O3)C(N(C)C)C2O)[C@@H](CC=O)C[C@@H](C)C(=O)/C=C\C2O[C@H]2C[C@@H](C)OC(=O)C[C@H]1OC(C)=O (stereo not given in full)	-1.2%	-0.5
OC(CBr)C[n+]1cc(Br)cc2ccccc21 (stereo not given)	-0.2%	0.5
O=C(Nc1ccccc1)c1ccccc1OCc1ccccc1	0.4%	0.1
N=C(N)SCc1cccc2c(=O)cc(-c3ccccc3)oc12	-0.9%	-0.6
O=C(C[n+]1ccccc1Cl)c1ccccc1	0.2%	0.1
O=C(NCC1CC1)c1ccc2nc(-c3ccoc3)c(-c3ccoc3)nc2c1	2.4%	-0.9
O=C1c2ccccc2C(=O)N1c1ccc2ncccc2c1	-0.1%	-0.6
CC1CCc2nc(-c3cc4c(ccc5ccccc54)oc3=O)sc2C1 (stereo not given)	?	-0.2

Complete entries from above. Order of screens: PINK1 expr mod | TRPML1 ag
OC(CBr)C[n+]1cc(Br)cc2ccccc21 (stereo not given) is listed with -0.2% | 0.5
CCCCCCCCCC[n+]1cc(Br)cc(Br)c1 is listed with 0.4% | -0.3
CO[C@@H]1[C@@H](OC2OC(C)C(OC3CC(C)(O)C(OC(=O)CC(C)C)C(C)O3)C(N(C)C)C2O)[C@@H](CC=O)C[C@@H](C)C(=O)/C=C\C2O[C@H]2C[C@@H](C)OC(=O)C[C@H]1OC(C)=O (stereo not given in full) is listed with -1.2% | -0.5
CC(C)(C)C1CCC(NC(=O)c2cnn3c2NC(=C2CC2)C=C3C(F)F)CC1 (stereo not given) is listed with -0.2% | -1.1
O=C(NCC1CC1)c1ccc2nc(-c3ccoc3)c(-c3ccoc3)nc2c1 is listed with 2.4% | -0.9

The results go on.
SMILES	PINK1 expr mod	TRPML1 ag
COc1ccccc1-c1nn2c(-c3cc(-c4ccccc4)n[nH]3)nnc2s1	-0.4%	-1.0
CN(C)c1ccc(C=C2c3ccccc3-c3ccccc32)cc1	5.7%	-0.2
O=C(COc1ccccc1C(=O)Nc1ccccc1)NCCCCc1ccccc1	2.1%	1.5
CCc1sc(-c2cc3cccc(OC)c3oc2=O)nc1-c1cc(C)ccc1C	0.9%	0.3
C[N+](C)(C)c1ccc(/C=C2\C=Cc3ccccc32)cc1	2.6%	-0.4
O=C(c1ccc2c(=O)n(CCc3ccccc3)c(=O)[nH]c2c1)N1CCN(C(=O)c2ccco2)CC1	0.7%	-0.4
COc1ccc(OC)c(NS(=O)(=O)c2ccccc2)c1	-0.3%	-0.5
Nc1ccc(/C=C/c2ccnc3ccccc23)c([N+](=O)[O-])c1	13.3%	17.6
COc1ccc(C2Nc3ccccc3C(=O)N2Cc2ccco2)cc1 (stereo not given)	5.0%	-1.0
O=C(O)C1CCCC1	0.0%	-0.1
COc1ccc(OC)c(/C=C/c2ccc3ccccc3[n+]2C)c1	?	0.1
COc1ccc(C(NC(=O)COc2ccc(C#N)cc2)c2ccc(OC)cc2)cc1	-0.1%	2.0
O=c1c2ccccc2sn1-c1ccc(Cl)c(S(=O)(=O)N2CCOCC2)c1	0.4%	1.8
Cc1ccc2[nH]c(=O)c(CN(Cc3ccco3)Cc3nnnn3Cc3ccco3)cc2c1	0.7%	-0.4
CC1CCc2cc(F)cc3c2N1C(=O)C(C(=O)Nc1cnccn1)C3=O (stereo not given)	-0.9%	-0.5
COc1cc2nc(N3CCCN(C)CC3)nc(NC3CCN(C)CC3)c2cc1OC	-0.9%	2.0
N#Cc1cccc(S(=O)(=O)N2CCN(c3nc(-c4cccs4)nc4ccccc34)CC2)c1	0.4%	0.2
C=C(NNC(C)=O)c1ccc(O)cc1	1.4%	-0.4
O=C(Nc1cccc(Nc2ccccc2)c1)c1cnn2c1NC(=C1CC1)C=C2C(F)F	2.0%	-0.8
CN(C)c1ccc(C(=C2C=CC(=[N+](C)C)C=C2)c2ccc(N(C)C)cc2)cc1	?	-1.2
CCNc1nc(NCC)nc(-n2cc(C(=O)c3cc(Cl)ccc3O)cn2)n1	0.4%	-1.1
COc1ccc(/C=C2\C=Cc3ccccc32)cc1OC	2.2%	0.5
CC(C)CNc1ncnc2oc(-c3ccco3)c(-c3ccco3)c12	0.6%	-0.6
CN(C)c1ccc(/C=C/c2ccnc3c([N+](=O)[O-])cccc23)cc1	-0.1%	-0.2
COc1cc2nc(N3CCOCC3)nc(NC3CC3)c2cc1OC	0.5%	-0.6

Part of the list above, as a markdown table:
| smiles | PINK1 expr mod | TRPML1 ag |
| --- | --- | --- |
| O=c1c2ccccc2sn1-c1ccc(Cl)c(S(=O)(=O)N2CCOCC2)c1 | 0.4% | 1.8 |
| C[N+](C)(C)c1ccc(/C=C2\C=Cc3ccccc32)cc1 | 2.6% | -0.4 |
| CC1CCc2cc(F)cc3c2N1C(=O)C(C(=O)Nc1cnccn1)C3=O (stereo not given) | -0.9% | -0.5 |
| N#Cc1cccc(S(=O)(=O)N2CCN(c3nc(-c4cccs4)nc4ccccc34)CC2)c1 | 0.4% | 0.2 |

The listing continues.
SMILES	PINK1 expr mod	TRPML1 ag
COc1cc2c(NC3CCN(C)CC3)nc(N3CCN(C)CC3)nc2cc1OCCOCCN(C)C	1.1%	-0.5
O=C(c1ccc2c(=O)n(Cc3ccco3)c(=S)[nH]c2c1)N1CCN(Cc2ccc3c(c2)OCO3)CC1	0.2%	-0.4
CCN(CC)CCCC(C)Nc1cc(/C=C/c2ccccc2Cl)nc2cc(Cl)ccc12 (stereo not given)	0.3%	2.0
C(=Nc1ccc(/C=C/c2ccnc3ccccc23)cc1)Nc1ccc(/C=C/c2ccnc3ccccc23)cc1	-0.1%	8.3
CN(C)Cc1cn(-c2ccccc2)nc1-c1ccccc1	-0.3%	1.2
CCOc1ccc(NC(=O)c2nc(SCc3ccccc3F)ncc2Cl)cc1	3.4%	0.0
O=C(c1ccc2c(=O)n(-c3ccccc3)c(=O)[nH]c2c1)N1CCN(Cc2cccs2)CC1	0.5%	0.1
O=C(Nc1nnc(C2CCCCC2)s1)C1CCN(C(=O)c2ccco2)CC1	-0.7%	0.9
Oc1ccc(Cl)cc1C1C=C(c2ccc3c(c2)OCO3)NC(c2ccc(C(F)(F)F)cc2)N1 (stereo not given)	1.2%	4.0
C=CCN(CC=C)c1ccc(/C=C/c2ccnc3ccccc23)cc1	-0.6%	18.4
CN(C(=O)COC(=O)c1ccccc1OCC(=O)Nc1ccc(Br)cc1)c1ccccc1	6.6%	3.3
O=S(=O)(c1ccc2c(c1)OCCO2)N1CCN(CCc2ccccc2)CC1	0.2%	-0.3
CCc1ccc(-c2nc3c(=O)n(C)c(=O)nc-3n(CC)n2)cc1	-0.4%	-0.3
O=C(C[n+]1cc(Br)cc2ccccc21)c1ccc(O)c(O)c1	6.4%	0.5
N#Cc1ccc(S(=O)(=O)N2CCN(c3nc(-c4cccs4)nc4ccccc34)CC2)cc1	0.1%	-0.9
CCCCOc1ccc(C(N)=O)cc1	0.3%	-0.8
Oc1cc2cc(-c3csc(-c4ccc(F)cc4)n3)ccc2[nH]1	0.2%	-1.0
COc1cc2c(cc1OC)C(c1oc(-c3ccc(-c4cc(Cl)ccc4Cl)o3)cc1C)=NCC2	2.3%	-0.3
O=C(C[n+]1ccccc1)c1ccc(I)cc1	-0.6%	-0.2
CN(N=O)c1ccc2c(c1)Cc1ccccc1-2	-1.0%	-0.6
CCCCOc1ccc(CC(=O)N(C)O)cc1	-0.3%	-1.2
FC(F)(F)C(F)(F)C(F)(F)c1nc2ccccc2[nH]1	0.3%	0.9
c1cc2c(cc1Cc1cncc(Cc3ccc4c(c3)OCO4)c1)OCO2	-0.3%	-0.5
CC(=O)NC(Cc1ccc(Cl)cc1)C(=O)NCC(N)C(=O)c1ccccc1 (stereo not given)	0.6%	0.0
Cc1ccc(NC(=O)COC(=O)c2ccccc2OCC(=O)Nc2ccc(Br)cc2)c(C)c1	0.1%	-0.3
CCCCn1c(SCC#N)nc2ccccc2c1=O	0.4%	-1.1
COc1cc(/C=C/c2ccnc3ccccc23)ccc1N(C)C	1.9%	57.7*
CC1CCCCN1C(=O)c1cnn2c1NC(=C1CC1)C=C2C(F)F (stereo not given)	-0.1%	-0.7
NCCCN(Cc1ccc(Cl)cc1)c1ccc(Br)cn1	13.7%	0.3
COc1cc(Cl)c(CC(=O)NO)cc1OC	0.3%	-0.6

Not all compounds are listed (hit frequency here may not be typical).
